SARS PLP yeast = qHTS of Yeast-based Assay for SARS-CoV PLP; AID 485353, 2010; Potency, µM (series often up to 32.9 µM), without a hit: at the highest dose activity, positive = growth rescue; S. cerevisiae expressing SARS-CoV PLpro, growth rescue; control for the full effect not named in the record; 330,000 tested, 0.19% active; active means well fitted rising curve with a large enough effect; inconclusive means small, poorly fitted or top-dose-only effect; inactive means no such curve, though single readings can be large or run the other way; further: 0% is about no effect; nearly all actives have a fitted effect of over 55% in size; growth read by luminescence after 48 h
NS1 function inh = qHTS Assay for Inhibitors of Influenza NS1 Protein Function; S. cerevisiae slowed by influenza A NS1, growth recovery by OD600; Potency, µM (series often up to 46.1 µM), without a hit: at the highest dose activity, positive = more growth; 270,000 tested, 0.4% active; AID 2326, 2010; active means well fitted rising curve with a large enough effect; inconclusive means small, poorly fitted or top-dose-only effect; inactive means no such curve, though single readings can be large or run the other way; further: nearly all actives have a fitted effect of over 50% in size
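Read-out: OD600 growth recovery of NS1-expressing budding yeast. Cells grown overnight at 30C in -URA glucose medium, washed, resuspended and diluted 1:100 in 2% galactose assay medium, pH 6.0. Same strain lacking NS1 served as positive control.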
Lassa entry inh = qHTS for Inhibitors of binding or entry into cells for Lassa Virus. Lassa virus pseudotype entry inhibition, cell reporter; control for the full effect not named in the record. Potency, µM (titrated, usually from 37.9 µM), without a hit: top-dose activity change, negative = inhibition, most hits filed as inhibitors. AID 540256, 2011. 300,000 tested, 1.2% active; active means well fitted inhibition curve with a large enough effect; inconclusive means small, poorly fitted or top-dose-only effect, or effect the other way; inactive means flat fitted curve, though single readings scatter; tested in HEK293 cells; further: on the % scale 0 is the no-effect control and ±100 the full control effect; nearly all actives have a fitted effect of over 50% in size; luciferase read-out
MARV entry inh = qHTS for inhibitors of binding or entry into cells for Marburg Virus; Marburg virus pseudotyped entry inhibition, cell reporter; control for the full effect not named in the record; about a third of the inactives were read at about 46 µM; AID 540276, 2011; 300,000 tested, 1.8% active; Potency, µM (doses to about 37.8 µM), for inactives: at the highest dose activity change, negative = inhibition, usual class: inhibitors; active = well fitted inhibition curve with a large enough effect; inconclusive = small, poorly fitted or top-dose-only effect, or effect the other way; inactive = flat fitted curve, though single readings scatter; tested in HEK293 cells; about a fifth of its hits are not listed in these tables; further: on the % scale 0 is the no-effect control and ±100 the full control effect; luciferase read-out
Cruzain inh Det = qHTS Assay for Promiscuous and Specific Inhibitors of Cruzain (with detergent); purified cruzain, Z-FR-AMC fluorescence, 0.01% Triton; Potency, µM, inactives show max response, negative = inhibition, usual class: inhibitors; 200,000 tested, 0.43% active; AID 1478, 2009;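 further: plate controls were neutral wells for no effect and buffer without enzyme for full effect; nearly all actives have a fitted effect of over 40% in size; top concentration of the series not given in the record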
Target sequence (P25779 123-467 limits assumed): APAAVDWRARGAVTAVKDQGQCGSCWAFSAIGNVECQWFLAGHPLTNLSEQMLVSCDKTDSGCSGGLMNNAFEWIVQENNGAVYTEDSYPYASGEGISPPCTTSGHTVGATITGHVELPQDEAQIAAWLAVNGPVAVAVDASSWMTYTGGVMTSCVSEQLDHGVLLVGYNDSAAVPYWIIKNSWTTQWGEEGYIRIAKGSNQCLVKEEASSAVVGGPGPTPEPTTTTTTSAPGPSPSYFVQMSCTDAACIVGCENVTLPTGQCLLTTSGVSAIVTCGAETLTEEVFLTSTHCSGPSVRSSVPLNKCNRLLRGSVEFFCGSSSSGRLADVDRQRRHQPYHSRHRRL
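Sodium acetate buffer (100 mM, pH 5.5) containing 5 mM DTT and 0.01% Triton X-100 hosted 1.5 nM cruzain and test compound for 15 min at room temperature. Cleavage of 2 uM Z-FR-AMC was then tracked by fluorescence.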
Cruzain inh noDet = qHTS Assay for Promiscuous and Specific Inhibitors of Cruzain (without detergent); Potency, µM, for inactives: max response, negative = inhibition, actives largely listed as inhibitors; 200,000 tested, 2.3% active; purified cruzain, Z-FR-AMC fluorescence, no detergent; Cruzipain (Trypanosoma cruzi), P25779; AID 1476, 2009;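 further: plate controls were enzyme without inhibitor for no effect and buffer without enzyme for full effect; nearly all actives have a fitted effect of over 40% in size; top concentration of the series not given in the record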
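Detergent-free condition (0.00005% Triton X-100) in acetate buffer pH 5.5 with DTT. 1.5 nM enzyme and compound were pre-mixed 15 min, then 2 uM Z-FR-AMC substrate added; reaction progress from fluorescence change between first and third reads (60 s).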
RE007 growth inh = qHTS Assay for Inhibitors of the HIV-1 protein Vpr; S. pombe RE007 Vpr strain, BacTiter-Glo ATP luminescence, 24 h; control for the full effect not named in the record; Potency, µM (doses to about 92.2 µM), for inactives: top-dose activity change, negative = less growth; 360,000 tested, 0.21% active; active = well fitted falling curve with a large enough effect; inconclusive = small, poorly fitted or top-dose-only effect; inactive = no such curve, though single readings can be large or run the other way;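 further: on the % scale 0 is the no-effect control and ±100 the full control effect; nearly all actives have a fitted effect of over 50% in size; the assay follows cell death caused by Vpr and the record does not say whether a fall means rescue or toxicity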
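Fission yeast RE007 carrying one integrated HIV-1 vpr copy, seeded at OD 0.01 in PMG+AL medium with 23 nL pinned compound. Grown 24 h at 30 degrees; viability read by BacTiter-Glo luminescence after 5 min.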
StopGo reporter = High Throughput Screening for Foot and Mouth Disease Virus Antivirals | AID 1159524, 2015 | human cells with a luciferase reporter of 2A StopGo recoding; control for the full effect not named in the record | 410,000 tested, 1.2% active | Potency, µM (doses to about 57.9 µM), for the others: at the highest dose signal change, negative = less light; active = well fitted falling curve with a large enough effect; inconclusive = small, poorly fitted or top-dose-only effect; inactive = no such curve, though single readings can be large or run the other way; tested in HEK293T cells; further: on the % scale 0 is the no-effect control and ±100 the full control effect; nearly all actives have a fitted effect of over 45% in size; luciferase light after 4 h
An asterisk follows results filed as active; u = inconclusive; x = no result given; & = joins results of further samples; [ ] = another dose, or the depositor's remark. Unless noted, the call rests on the fitted dose curve; in most records, active means well fitted curve in the direction sought with a large enough effect; inconclusive means small, poorly fitted or top-dose-only effect, or another doubt; inactive means no such curve, though single readings can be large; an effect the other way counts as inactive or inconclusive. Potency means the concentration at half of the fitted maximal effect. The order is random (roughly 4.7% active in at least one column).

SMILES	SARS PLP yeast	NS1 function inh	Lassa entry inh	MARV entry inh	Cruzain inh Det	Cruzain inh noDet	RE007 growth inh	StopGo reporter
Oc1cc(O)c2c(c1)O[C@H](c1ccc(O)c(O)c1)[C@H](O)C2	2%	7%	x	u	4.5%&-0.6%	-5%&-10%	3%	-11%&-10%
CCCc1nc2n[nH]c(N)c2c2c1COC(C)(C)C2	-2%	-4%	5%	7%	2.9%	-1%	-10%	-21%
C#CCSc1nc(-c2ccccc2)c2cc(Cl)ccc2n1	x	x	10%[46.1 µM]	2%[46.1 µM]	-1.3%	10%	x	-24%
CC(C)c1onc(C(=O)Nc2cccc(O)c2)c1[N+](=O)[O-]	1%	x	11%[46.1 µM]	3%[46.1 µM]	x	x	0%	11%
Cc1ccc(N2C(=O)C(c3c(C)[nH]n(-c4ccccc4)c3=O)(C(F)(F)F)C3=C2CC(C)(C)CC3=O)cc1 (stereo not given)	5%	10%	-10%	-1%	-1.1%	u	5%	-22%
Cc1ccc(N2C(=O)/C(=C/c3cccnc3)SC2=S)cc1	9%	35%	-6%	26%	-3.3%	u	6%	-5%
Cn1cc(/C=C/c2nc3ccccc3c(=O)n2-c2ccccc2)c2ccccc21	x	x	u	x	-4.1%	10%	x	-10%
CC(Oc1ccccc1)C(=O)NC1C(=O)N2C1SC(C)(C)C2C(=O)O (stereo not given)	0%	3%	4%[46.1 µM]	0%[46.1 µM]	x	x	9%	4%
CC1(C)Cc2c(sc3nc(SCC(=O)N4CCOCC4)nc(N)c23)CO1	4%	14%	-17%	22%	2.9%	-2%	3%	-15%
CC1(c2ccc3c(c2)OCCCO3)NC(=O)N(CC(=O)NCCc2ccccc2)C1=O (stereo not given)	-8%	x	7%	0%	x	x	0%	-10%
c1cnc(-c2noc(CN3CCN(C4C5CC6CC(C5)CC4C6)CC3)n2)cn1 (stereo not given)	0%	1%	x	x	x	x	7%	-21%
Cc1c2cnn(CC(=O)NCCN3CCOCC3)c(=O)c2c(C)n1Cc1ccc(F)cc1	-7%	10%	x	x	x	x	2%	0%
CS(=O)(=O)N(CC(=O)Nc1cccc(F)c1)Cc1ccccc1	0%	0%	15%	-4%	2.7%	-5%	10%	7%
Nc1nc2ccc(NC(=O)c3ccco3)cc2s1	-3%	12%	20%	8%[46.1 µM]	x	x	-3%	25%
Cc1ccc(Cn2ccsc2=NC(=O)COC(=O)C(C)C)cc1	1%	2%	2%[46.1 µM]	0%[46.1 µM]	x	x	2%	17%
O=C(NC1CCCCC1)[C@H](O)[C@@H](O)C(=O)NC1CCCCC1	-2%	-6%	-8%	5%	-1.6%	-6%	1%	-1%
COc1ccc(C(=O)c2c(NC(C)=O)sc3c2CCN(C(=O)OC(C)(C)C)C3)cc1	-1%	3%	u	u	x	x	9%	-21%
Cc1ccc(S(=O)(=O)Nc2ccccc2C(=O)N2CCCC2)cc1	0%	12%	-3%	-5%	x	x	4%	4%
O=C(CCOc1ccccc1)Nc1ccnn1C1CCN(Cc2ccc(O)cc2)CC1	0%	5%	-1%[46.1 µM]	-3%[46.1 µM]	x	x	-4%	-10%
COc1ccc2c(c1)cc(C)c1nnc(SCC(=O)N3CCN(C(=O)c4ccco4)CC3)n12	-5%	1%	0%	-1%	4.7%	2%	3%	x
COc1cc(CC(=O)Nc2cc(S(=O)(=O)N3CCOCC3)ccc2N2CCCC2)cc(OC)c1OC	x	x	-6%	-9%	x	x	13%	-11%
CCOC(=O)N1CCN(Cc2nnc(-c3ccccc3C)o2)CC1	-2%	2%	2%	12%	x	x	-14%	12%
C/C(=N\Nc1nc(-c2ccccc2O)nc2ccccc12)c1ccccc1	-1%	2%	-15%[46.1 µM]	-25%[46.1 µM]	x	x	6%	-4%
COc1ccc(N2CCN(C(=O)COC(=O)Cc3cccc(OC)c3)CC2)cc1	0%	x	-4%	11%	x	x	-4%	-14%
O=C(Nc1cccc(Cn2cccn2)c1)c1cc2c(s1)CCCC2	-1%	-88%	-16%	u	-12%	-19%	-11%	4%
Cc1ccc(/C=N\NC(=O)Cc2noc3ccccc23)cc1	0%	1%	-21%[46.1 µM]	u	x	x	1%	17%
OCCC1CN(Cc2c(F)cccc2Cl)CCN1C1CCCCC1 (stereo not given)	-1%	-3%	-18%[46.1 µM]	-23%[46.1 µM]	x	x	-8%	-11%
COc1ccc(C(=O)c2ccc(Cl)cc2)cc1	7%	-1%	4%	13%	-2.7%	6%	-12%	0%
CCc1ccc(NC(=O)c2ccc3nc(N)sc3c2)cc1	-25%	-1%	7%	x	-6.6%	-8%	u	28%
CCc1cc2c(C)cc(C)cc2nc1SCC(=O)Nc1cc(C)on1	-1%	-1%	u	14%[46.1 µM]	x	x	21%	-8%
CC(C)Cn1nc(NC(=O)c2cccc(Cl)c2)c2cc3ccccc3nc21	x	x	7%[46.1 µM]	u	-4.1%	-23%	x	-7%
S=c1[nH]nc(CSCCOc2ccc(Cl)cc2Cl)o1	0%	-38%	-5%[46.1 µM]	6%[46.1 µM]	x	x	-4%	15%
Cc1cc(C)cc(-n2ccnc(NCc3ccc(F)cc3)c2=O)c1	x	x	-12%[46.1 µM]	x	-2.5%	-11%	x	-17%
CSCC[C@H](NS(=O)(=O)c1ccc(C)cc1)C(=O)N1CCC(C(=O)N[C@@H](Cc2ccccc2)C(=O)O)CC1	4%	19%	x	x	x	x	11%	-9%
O=C(O)C1CCCN1S(=O)(=O)c1ccccc1 (stereo not given)	-4%	1%	15%	u	-2.3%	-5%	2%	-20%
CSc1nc(-c2ccccc2)cn1-c1ccc(NC(C)=O)cc1	-4%	x	u	u	x	x	6%	0%
COCCC1CCCCN1C(=O)c1cc(COc2ccc(C)nc2)on1 (stereo not given)	2%	13%	-10%	u	x	x	-9%	-12%
O=C(NCc1ccco1)c1ccc2c(c1)N(Cc1ccccc1F)C(=O)c1ccccc1S2(=O)=O	x	x	-1%[46.1 µM]	-27%[46.1 µM]	-1.7%	-16%	x	5%
COc1ccc2c(c1)cc(CNc1ccc(OC)c(OC)c1)c(=O)n2CC(=O)Nc1ccccc1C	x	x	15%[46.1 µM]	x	-6.4%	27%	x	-13%
Cc1cc(NC(=O)CSc2nc3c(c(-c4cccnc4)c2C#N)CCC3)no1	-1%	9%	-26%	-4%	-0.7%	7%	1%	-7%
O=[N+]([O-])c1ccc(N2CCCCC2)cc1	1%	5%	28%	-5%[46.1 µM]	x	x	-19%	6%
COc1ccc(NC(=S)NCCN2CCC(C)CC2)cc1Cl	0%	10%	u	u	x	x	-29%	11%
COc1ccc2c(c1)c1ncn(CCc3ccccc3)c(=O)c1n2C	-6%	-24%	u	u	-4.4%	19%	-3%	6%
COc1cc2c(cc1OC)CN(C(=O)c1ccc(OC)c([N+](=O)[O-])c1)CC2	1%	-7%	8%	-3%	x	x	-11%	-14%
O=C1N[C@H](Cc2ccccc2)C(=O)N1Cc1cccc2ccccc12	x	x	u	-23%&-23%[14.2 µM]	0.4%	-13%	x	x
OC(COCCOc1ccc(Br)cc1)CN1CCN(Cc2ccccc2)CC1 (stereo not given)	4%	-14%	u	u	-0.5%	4%	-16%	u
Cc1oc2cc3oc(=O)c(CC(=O)NCCCC(=O)O)c(C)c3cc2c1C	10%	-4%	6%[46.1 µM]	-1%[46.1 µM]	x	x	-10%	-14%
COc1ccccc1CN1CC(C(=O)NCc2ncccc2C)CCC1=O (stereo not given)	-4%	6%	x	x	x	x	3%	-10%
CN(C)S(=O)(=O)c1ccc(NC(=O)COC(=O)c2n[nH]c3ccccc23)cc1	9%	17%	-24%	-10%	-2.9%	-24%	12%	22µM*
CC1C(=O)N2CCCc3cc(NC(=O)C(=O)NCc4cccnc4)cc1c32 (stereo not given)	1%	x	8%	-12%	x	x	-6%	-2%
O=C(CC12CC3CC(CC(C3)C1)C2)Nc1ccccc1N1CCOCC1	-8%	x	u	u	x	x	27%	-5%
Cc1cc(-c2ccccc2)c2c3c(c(-c4ccccc4)n2n1)c(=O)n(C)c(=O)n3C	-3%	7%	1%	-17%	-2.5%	4%	-2%	x
Cc1ccc(Cl)cc1N1CCN(C(=O)c2cc3c(-c4ccccc4F)nn(C)c3s2)CC1	x	x	-25%[46.1 µM]	-5%[46.1 µM]	-4.0%	-16%	x	-6%
COc1ccc(Br)cc1/C=N/Nc1cccc(C(=O)O)c1	-6%	10%	20%	19%	-12%	-6%	4%	36%[activator]
O=C(Cc1cccs1)N1CCN(S(=O)(=O)c2ccccc2)CC1	0%	4%	4%	-3%	4.1%	-1%	6%	0%
COc1cc(-c2noc(-c3ccc(NCC4CCCO4)c([N+](=O)[O-])c3)n2)cc(OC)c1OC (stereo not given)	x	x	4%[46.1 µM]	-1%[46.1 µM]	-12%	u	x	11µM*
NS(=O)(=O)c1ccc(CNC(=O)CCCSc2ccccc2)cc1	4%	7%	5%	0%[46.1 µM]	x	x	-12%	8%
O=[N+]([O-])C(/C=C(/Cl)[N+](=O)[O-])=C(N1CCCCC1)N1CCCCC1	-1%	0%	-26%	u	x	x	1%	14%
COc1ccc(CC(=O)OCCN(C)C)cc1	6%	13%	21%	-2%	0.5%	-5%	-10%	-5%
c1ccc(Cn2nnnc2CN2CCN(c3ncccn3)CC2)cc1	1%	-8%	u	7%	6.4%	1%	20%	-6%
Cc1ccc2c(n1)sc1c(-c3ccccc3)c(C#N)c(N)nc12	8%	3%	-9%	0%	-1.7%	u	-4%	-14%
CCN1CCN(C(=O)COc2cc(=O)n(CC)c3ccccc23)CC1	3%	5%	-10%	2%	5.2%	-3%	144%	1%

Screens: PubChem, National Center for Advancing Translational Sciences (NCATS)
